Assay outcomes deposited in PubChem by National Center for Advancing Translational Sciences (NCATS).
VACV mCherry inh – qHTS for Stage-Specific Inhibitors of Vaccinia Orthopoxvirus: mCherry Reporter Primary qHTS; Vaccinia virus mCherry reporter infection, fluorescence; about a quarter of the inactives have no number; Potency, µM (doses to about 36.5 µM), for the others: top-dose activity change, negative = inhibition, usual class: inhibitors; 0.63% of 310,000 active; AID 720579, 2013; active = well fitted inhibition curve with a large enough effect; inconclusive = small, poorly fitted or top-dose-only effect; inactive = no such curve, though single readings can be large or run the other way; tested in A549 cells; further: nearly all actives have a fitted effect of over 35% in size; inactives centre near -10
Vaccinia Venus – qHTS for Stage-Specific Inhibitors of Vaccinia Orthopoxvirus: Venus Reporter Primary qHTS. 0.46% of 330,000 active. Vaccinia virus Venus reporter expression, fluorescence. Potency, µM (series often up to 36.5 µM), for the others: at the highest dose activity change, negative = inhibition, hits mostly inhibitors; active means well fitted inhibition curve with a large enough effect; inconclusive means small, poorly fitted or top-dose-only effect; inactive means no such curve, though single readings can be large or run the other way; tested in A549 cells; further: nearly all actives have a fitted effect of over 30% in size; inactives centre near -10
Numbers without * were called inactive; i = inactive; u = inconclusive; x = not tested or not shown; & = joins results of further samples; [ ] = dose if it differs, or a comment. On the % scale 0 is the no-effect control and ±100 the full control effect; potency means the concentration at half of the fitted maximal effect. Outcome played no part in choosing rows. Share with any hit: about 0.82%.

| canonical_smiles | VACV mCherry inh | Vaccinia Venus |
| --- | --- | --- |
| CC(C)(C)c1ccc(C2=NC(C)(C)N(CC(=O)Nc3ccc(F)c(F)c3)C2=O)cc1 | -16% | -20% |
| CCN(CC)C(=O)c1cc(Cl)ccn1 | -21% | -1% |
| Cc1c(C(=O)Nc2ccc(Cl)cc2)c2ccccn2c1C(=O)c1ccc(F)cc1 | i | -6% |
| CC(Cl)C(=O)Nc1cc(C(F)(F)F)ccc1N1CCOCC1 (configuration not stated) | i | -9% |
| Cc1ccc(C(=O)OCC(=O)NC2CCCCCC2)c(C)c1 | -17% | -15% |
| CC(C)(C)c1ccc(CN(Cc2ccco2)Cc2nnnn2C2CCCC2)cc1 | u | -21% |
| Cc1ccc(NC(=O)ON=C2CCCC2)cc1 | -6% | -15% |
| NC1=NC(=O)S/C1=C\c1ccc(O)cc1 | i | -12% |
| Cc1oc(-c2ccc3c(c2)OCCO3)cc1C(=O)NC(Cc1ccccc1)C(=O)O (configuration not stated) | 3% | 12% |
| CCN(CC)C(=O)c1sc(NC(=O)c2nc3ncccn3n2)c(C(=O)OC)c1C | -8% | -9% |
| CC(C)C(=O)N1CCN(CCN=Cc2c(O)n(C)c(=O)n(C)c2=O)CC1 | -3% | -10% |
| Cc1ccc(O)c(-c2n[nH]c3c2C(c2ccccc2F)N(Cc2ccco2)C3=O)c1 (configuration not stated) | -11% | -13% |
| COc1ccc(F)c(C2C(C#N)=C(N)Oc3n[nH]c(C(C)(C)C)c32)c1 (configuration not stated) | u | -24% |
| COc1ccc(-n2c(=O)c3ccccc3n(CC(=O)Nc3ccccc3OC)c2=O)cc1 | -4%&-11% | -6%&-1% |
| CCS(=O)(=O)N1CCc2cc(C(=O)Nc3cccc(NC(C)=O)c3)ccc21 | 9% | -4% |
| C[C@]12CC[C@H](O)CC1=CCC1C2CC[C@@]2(C)C1C[C@@H](O)[C@@H]2O (some centres not stated) | -15% | -7% |
| O=C(OCC(=O)N1CCCCCC1)c1cccs1 | x | -25% |
| COC(=O)N/N=C1\CCCc2c(C)cc(C)cc21 | i | -14% |
| CSc1ccc(CN2CCC(C)(Oc3ccc(-n4ccnc4)cc3)C2)cc1 (configuration not stated) | -11% | u |
| Cc1onc(-c2c(F)cccc2Cl)c1C(=O)OCC(=O)NC(=O)NCC(C)C | -9% | -9% |
| CN1C(=O)C(=C2CCCCCC2)SC1=S | i | -2% |
| COCCn1c(Cc2cccn2C)nnc1SCC(=O)Nc1nccs1 | i | -5% |
| CC(=O)Nc1ccc(/C=N/NC(=O)CC2CCCCC2)cc1 | 5% | -4% |
| CC1(C(=O)NS(=O)(=O)c2cccc(Cl)c2)CCN1C(=O)c1cccc(F)c1 (configuration not stated) | i | -5% |
| Cc1[nH]c(=O)[nH]c(=O)c1/C=N/NC(=O)[C@H](CC(C)C)NC(=O)OC(C)(C)C | i | -4% |
| CC1(C)Oc2ccc3ccc(=O)oc3c2CC1O (configuration not stated) | i | -17% |
| Cc1ccc(C)c(NC(=O)Cn2cc(S(=O)(=O)NC(C)C)c(S(=O)(=O)NC(C)C)c2)c1 | -5% | -2% |
| CCOc1ccc(NC(=O)CN(C)S(=O)(=O)c2ccc3c(c2)CCC(=O)N3)cc1 | -6%[7.34 µM] | 4%[7.34 µM] |
| O=C(CSc1ncnc2ccccc12)Nc1cccc(S(=O)(=O)N2CCCC2)c1 | -14% | -23% |
| O=C(/C=C/c1ccc(Cl)cc1)N1CCC(c2nc3ccccc3o2)CC1 | -5% | -6% |
| COc1cc(OC)cc(-c2cc(N)n(S(=O)(=O)Cc3ccccc3)n2)c1 | -22% | -16% |
| Cc1ccc(C)c(C(=O)C(C)OC(=O)c2cccn2C)c1 (configuration not stated) | x | -13% |
| CCN[C@@H](C)Cc1cccc(C(F)(F)F)c1 | i | -7% |
| CCCn1c(C(O)c2ccc3c(c2)OCO3)nc2ccccc21 (configuration not stated) | -16% | -8% |
| O=C(/C=C/c1cccc(F)c1)N1CCc2ccccc21 | i | -16% |
| COc1ccc(NC(=O)c2c(C)oc3ccc(O)c(CN4CCCCCC4)c23)cc1 | -3% | -23% |
| O=C(Nc1ccc(C(=O)OCc2cc(=O)n3ccsc3n2)cc1)c1cccc(F)c1 | -11% | 1% |
| COc1ccccc1C1CCN(Cc2cccc3ccccc23)CC1 | -3% | -8% |
| CCN(CC(=O)Nc1ccccc1C(F)(F)F)C(=O)c1oc2c(Cl)cccc2c1C | -15% | -7% |
| O=[N+]([O-])c1ccc(O)c2cccnc12 | -5% | 0% |
| Cc1ccc(Cn2c([N+](=O)[O-])cnc2C)cc1 | -21% | -15% |
| O=C(Nc1ccccc1Cl)c1cc2ccccc2o/c1=N\O | i | -5% |
| O=C1N(Cc2cccc(Cl)c2)C[C@@H]2C[C@@H](c3cccn3-c3nccs3)N3CCC[C@@]123 | u | 11% |
| O=C(Nc1ccc(S(=O)(=O)N2CCc3ccccc32)cc1)c1ccco1 | u | -20% |
| C#CCOCCOCCOCCNc1nc(N2CCOCC2)nc(N2CCN(C(=O)Cn3cc(CCCN=C(N)N)nn3)CC2)n1 | i | -5% |
| CC1CCCN(CC(O)CN2CCN(CC(O)CN3CCCC(C)C3)C(C)C2)C1 (configuration not stated) | i | 6% |
| CCC(CC)C(=O)NCCc1cc2ccc(OC)cc2[nH]c1=O | -10% | -5% |
| CCCCC[C@@H]1C=C(C(=O)O)[C@H](c2ccc(CC)cc2)N1S(=O)(=O)c1ccc(C)cc1 | -1% | 3% |
| COc1ccc(NC(c2nnc(-c3ccccc3)o2)c2ccccc2F)cc1Cl (configuration not stated) | -5% | 4% |
| O=C(CSC1=NC(=O)C(c2ccccc2)C(=O)N1)Nc1ccccc1Cl (configuration not stated) | x | -16% |
| Cc1nn(-c2ccccn2)c2c1C(=O)CC(C)(C)C2Br (configuration not stated) | -34% | -11% |
| CCN(CC(=O)Nc1ccc(NC(C)=O)cc1)C(=O)c1cccnc1Sc1ccc(C)c(C)c1 | -27% | -15% |
| CN(CC(=O)N1CCc2ccccc21)S(=O)(=O)c1cccc2cccnc12 | 9% | -3% |
| COc1ccccc1NC(=O)CSc1ncc2c(n1)-c1ccccc1N(Cc1ccccc1C)S2(=O)=O | 9% | 14% |
| COc1ccc(C(CNC(=O)Cc2ccc(Cl)cc2)N2CCOCC2)cc1 (configuration not stated) | -10% | -7% |
| O=C(COc1coc(CN2CCc3ccccc3C2)cc1=O)Nc1ccc(Cl)cc1 | -17% | -15% |
| c1ccc2c(NC3=NCCS3)cccc2c1 | x | -6% |
| COc1ccc2oc(C(=O)N3CCCc4ccccc43)c(C)c2c1 | -4% | -14% |
| Cc1c(NS(=O)(=O)c2cc(C(=O)O)ccc2Cl)c(=O)n(-c2ccccc2)n1C | 5% | 5% |
| CCOc1ccccc1NC(=O)COC(=O)C(CC(C)C)N1C(=O)C2CC=CCC2C1=O (configuration not stated) | -11% | -5% |

Continuation:
| canonical_smiles | VACV mCherry inh | Vaccinia Venus |
| --- | --- | --- |
| CC(C)Cc1csc(NC(=O)c2ccc(Cl)cc2)c1C(=O)O | i | u |
| CCOc1ccccc1CNC(=O)CCn1ccc2cc(S(=O)(=O)N3CCCCC3)ccc21 | -18% | -9% |
| O=C(NCCN1CCOCC1)c1cc([N+](=O)[O-])ccc1Cl | -12% | -3% |
| O=C1C=C(c2ccc(F)c(Cl)c2)C[C@@H](c2ccc(F)cc2)C1 | -4% | -18% |
| O=C(CSc1nnc(-c2cccnc2)n1-c1ccccc1)Nc1ccc2c(c1)OCO2 | -13% | -4% |
| CC(=O)N1CCN(C(=O)CSc2ncnc3sc(C)c(C)c23)CC1 | i | -12% |
| COc1cc2nc(N3CCN(C)CC3)nc(NC3CCN(Cc4ccccc4)CC3)c2cc1OC | -1% | -27% |
| CC(C)(C)NC(=O)Cn1nnc(-c2ccc(Cl)cc2)n1 | 10% | 10% |
| O=C(OCc1ccccc1)C1=NNC2C(=O)N(Cc3ccccc3)C(=O)C12 (configuration not stated) | -2% | -1% |
| CNC(=O)NC(=O)C(C)OC(=O)c1c2c(nc3ccccc13)/C(=C/c1cccs1)CC2 (configuration not stated) | -3% | -9% |
| O=C(CS(=O)(=O)Cc1ccccc1)NCC1CCCO1 (configuration not stated) | -5% | 0% |
| CCOc1ccccc1N(C)C(=O)c1cc2c(s1)-c1ccccc1OC2 | 1% | -9% |
| C[C@H](CO)N1C[C@H](C)[C@H](CN(C)C(=O)Nc2cccc3ccccc23)OCc2cnnn2CCCC1=O | -20% | -13% |
| O=C(NCc1ccccc1F)C1CC(=O)N(c2ccc3c(c2)OCCO3)C1 (configuration not stated) | -12% | -14% |
| Cc1cc(NC(=O)CSc2nc3c(cc2C#N)CCCC3)no1 | -15% | -5% |
| CC(C)Cn1c(=O)oc2ccccc21 | -5% | -11% |
| Cc1ccsc1C(=O)C1CCCN(Cc2c(C)nn(C(C)C)c2C)C1 (configuration not stated) | -4% | -16% |
| COc1ccc(CNn2cnnc2)c(O)c1 | i | -1% |
| C=CCn1nc(-c2ccccc2)cc1C(=O)OCC | -14% | -11% |
| O=C(N/N=C/c1c[nH]c2ccccc12)C1CC1(c1ccccc1)c1ccccc1 (configuration not stated) | u | u |
| Cc1cccn2c(=O)c(/C=C(\C#N)C(=O)NCc3ccco3)c(N3CCOCC3)nc12 | i | -9% |
| O=C(O)CCCCCNS(=O)(=O)c1cccc2nsnc12 | -1% | -21% |
| CN(Cc1ccccc1)C(=O)c1ccc2c(c1)NC(=O)C(N1CCOCC1)S2 (configuration not stated) | -2% | -14% |
| COCc1nc2ccccc2n1Cc1cccc(C)c1 | -9% | 0% |
| O=C(Nc1ccccc1-c1ccccc1)c1ccc(=O)[nH]n1 | -11% | -12% |
| O=C(NCc1ccc2c(c1)OCO2)c1nc(Cn2cc(Br)cn2)no1 | i | 0% |
| Cc1ccc(C(c2nnnn2C2CCCCC2)N(C)C2CCCCC2)cc1 (configuration not stated) | -4% | -5% |
| CC1CCN(c2ccc(-c3cccc(NS(=O)(=O)c4ccc(F)cc4F)c3)nn2)CC1 | -17% | -15% |
| COc1cccc(OC)c1NC(=O)C1CCCN1C(=O)Nc1ccccc1F (configuration not stated) | -4% | -10% |
| COc1ccc(C)cc1Nc1n[n+](-c2ccccc2)c(-c2ccc(SC)cc2)s1 | -16% | -25% |

Overlap with the part before: 5 compounds; new compounds follow.
| canonical_smiles | VACV mCherry inh | Vaccinia Venus |
| --- | --- | --- |
| O=C(NCc1ccc2c(c1)OCO2)c1nc(Cn2cc(Br)cn2)no1 | i | 0% |
| Cc1ccc(C(c2nnnn2C2CCCCC2)N(C)C2CCCCC2)cc1 (configuration not stated) | -4% | -5% |
| CC1CCN(c2ccc(-c3cccc(NS(=O)(=O)c4ccc(F)cc4F)c3)nn2)CC1 | -17% | -15% |
| COc1cccc(OC)c1NC(=O)C1CCCN1C(=O)Nc1ccccc1F (configuration not stated) | -4% | -10% |
| COc1ccc(C)cc1Nc1n[n+](-c2ccccc2)c(-c2ccc(SC)cc2)s1 | -16% | -25% |
| COc1ccc(C(=O)NCC(c2cccs2)N2CCc3ccccc32)cc1OC (configuration not stated) | u | -21% |
| Cc1ccc(CNC(=O)c2ccccc2NS(=O)(=O)c2ccc(Cl)nc2)cc1 | -11% | -24% |
| COc1ccc(NC(=O)CSc2nnc(CN3CCOCC3)n2C)cc1Cl | -17% | -17% |
| CCOC(=O)c1cnc2cc(C(F)(F)F)ccc2c1Nc1cc(C)ccc1OC | 0% | 3% |
| O=C(COc1ccc(Br)cc1)Nc1ccc(Cc2ccncc2)cc1 | i | -6% |
| CCc1c(C#N)c(SCCC(=O)Nc2ccc(OC)cc2)nc2c1C(=O)CC(C)(C)C2 | u | -18% |
| Cn1cc([C@]2(O)C(=O)N(c3ccccc3)c3ccccc32)c2ccccc21 | -7% | -11% |
| CC(C)c1c(C(=O)N/N=C/c2cccc(OCc3ccc(F)cc3)c2)nnn1-c1nonc1N | -7% | -18% |
| O=C(CN(c1cccc(Br)c1)S(=O)(=O)c1ccccc1)N1CCc2ccccc2C1 | -13% | -11% |
| CCn1ncc(Br)c1C(=O)N(C)C12CC3CC(CC(C3)C1)C2 | x | u |
| COC(=O)/C(=C1/Oc2cc(C)oc(=O)c2S1)C(F)(F)F | -5% | 3% |
| CCOC(=O)c1ccc(NC(=O)Cn2c(C)nc3c(sc(=S)n3CC)c2=O)cc1 | -4%[7.34 µM] | 6%[7.34 µM] |
| O=[N+]([O-])c1cccc(C2=NCCC(c3ccccc3)O2)c1 (configuration not stated) | -19% | -26% |
| CCC(C)(C)n1nnnc1C(c1ccc(C)cc1)N1CCN(C(=O)c2ccco2)CC1 (configuration not stated) | -23% | -12% |
| CCN(Cc1ccccc1)C(=S)Nc1cc(C(=O)OC)ccc1C(=O)OC | i | -3% |
| O=C(COC(=O)c1cc[n+]([O-])cc1)Nc1ccc([N+](=O)[O-])cc1C(F)(F)F | -20% | -16% |
| COc1cccc(NC(=O)CN(C)C(=O)Cc2ccc3c(c2)CCC3)c1 | -4% | -16% |
| CSc1nc(N2CCOCC2)c2c(c1C#N)CCCCC2 | x | -23% |
| CCOC(=O)c1cc(OC(=O)c2ccc(C)cc2)n(-c2ccccc2)n1 | -9% | -5% |
| Cc1ccc(CNC(=O)C2CCCN2C(=O)Nc2ccc(C)cc2)cc1 (configuration not stated) | i | -8% |
| Cc1noc2ncnc(Sc3ccc(Br)cc3)c12 | i | -17% |
